Source: PubChem
Bfl-1 A1 inh = caspase 3/7 activation in MEF A1-2A-BIM cells, primary screen, A1 inhibitor project, cell-based, luminescence, HTS; caspase activation, % (no concentration beside the values); 330,000 tested, 0.066% active; Caspase-Glo 3/7 luminescence, 3 h; percent of clofoctol response, vehicle zero; AID 2462, 2010;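 active means over half of replicate activation scores above 10%, or exactly half above 10 with the replicate mean above 10; inconclusive means replicate mean below 10 yet half the replicates above 10; inactive means over half of replicates below 10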;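 further: wells of about 30 µL received 50 nL stock; many hits fall short of the cut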
B2AR ag = beta2AR agonists driving receptor internalization, primary screen, cell-based, FAP fluorogen, flow cytometry; Beta-2 adrenergic receptor (Homo sapiens), P07550; Am2.2-beta2AR cells; reference of the scale not given here; response, % (test concentration not listed); 340,000 tested, 0.43% active;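 active means response above a set limit, near 3 SD of response in nonfluorescent compounds, cut at about 42% in these data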;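 further: stock transfer was 100 nL into about 11 µL; a reference agonist was the positive control; negative values mostly stem from fluorescent compounds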
Calb FLC = C. albicans growth inhibition with fluconazole, primary screen, CaCi-2 strain, Alamar Blue fluorescence; 300,000 tested, 0.57% active; growth inhibition, % (concentration not given with the values); C. albicans CaCi-2 (fluconazole-resistant clinical isolate) + fluconazole, 48 h; AID 1979, 2009;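 active means most replicates above 75%; inconclusive means exactly half above 75%; inactive means most below 75%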;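 further: all wells also contain fluconazole at 8 µg/ml as a sub-toxic cotreatment; 0% = median of DMSO wells and 100% = median of geldanamycin control wells; wells of about 8 µL received 7.5 nL stock; the first replicate is given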
Beta apoptosis = inhibitors of cytokine-induced beta cell apoptosis, primary screen, luminescence | INS-1E cytokine-induced death, ATP luminescence, 48 h; percent of positive-control rescue, neutral wells zero | 300,000 tested, 0.8% active | protection from apoptosis, % (no concentration beside the values);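 active means all replicates at 75% or more, or half of them and the mean; inconclusive means half reach 75% but not the mean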;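 further: 0% = cytokine-treated negative control wells and 100% = positive control rescue; higher means more ATP so stronger rescue from cytokine killing; wells of about 40 µL received 100 nL stock; the first replicate is given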
LANA-H2B inh = blockers of LANA interaction with H2A/H2B – biochemical, FP readout, HTS, primary screen; Protein LANA1 (Human herpesvirus 8 type P (isolate GK18)), Q9QR71; cell-free LANA-H2A/H2B peptide, fluorescence polarization; inhibition, % (no concentration beside the values); 320,000 tested, 0.6% active; in the data active means inhibition mostly above about 10%, no sharp cut-off; inactive means mostly below about 6.7%;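 further: stock transfer was 7.5 nL into about 10 µL; 0% = median of vehicle wells and 100% = median of positive control wells; one replicate is shown; the record names a cut of 25% in any replicate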
Target sequence (Q9QR71 whole entry, looked up): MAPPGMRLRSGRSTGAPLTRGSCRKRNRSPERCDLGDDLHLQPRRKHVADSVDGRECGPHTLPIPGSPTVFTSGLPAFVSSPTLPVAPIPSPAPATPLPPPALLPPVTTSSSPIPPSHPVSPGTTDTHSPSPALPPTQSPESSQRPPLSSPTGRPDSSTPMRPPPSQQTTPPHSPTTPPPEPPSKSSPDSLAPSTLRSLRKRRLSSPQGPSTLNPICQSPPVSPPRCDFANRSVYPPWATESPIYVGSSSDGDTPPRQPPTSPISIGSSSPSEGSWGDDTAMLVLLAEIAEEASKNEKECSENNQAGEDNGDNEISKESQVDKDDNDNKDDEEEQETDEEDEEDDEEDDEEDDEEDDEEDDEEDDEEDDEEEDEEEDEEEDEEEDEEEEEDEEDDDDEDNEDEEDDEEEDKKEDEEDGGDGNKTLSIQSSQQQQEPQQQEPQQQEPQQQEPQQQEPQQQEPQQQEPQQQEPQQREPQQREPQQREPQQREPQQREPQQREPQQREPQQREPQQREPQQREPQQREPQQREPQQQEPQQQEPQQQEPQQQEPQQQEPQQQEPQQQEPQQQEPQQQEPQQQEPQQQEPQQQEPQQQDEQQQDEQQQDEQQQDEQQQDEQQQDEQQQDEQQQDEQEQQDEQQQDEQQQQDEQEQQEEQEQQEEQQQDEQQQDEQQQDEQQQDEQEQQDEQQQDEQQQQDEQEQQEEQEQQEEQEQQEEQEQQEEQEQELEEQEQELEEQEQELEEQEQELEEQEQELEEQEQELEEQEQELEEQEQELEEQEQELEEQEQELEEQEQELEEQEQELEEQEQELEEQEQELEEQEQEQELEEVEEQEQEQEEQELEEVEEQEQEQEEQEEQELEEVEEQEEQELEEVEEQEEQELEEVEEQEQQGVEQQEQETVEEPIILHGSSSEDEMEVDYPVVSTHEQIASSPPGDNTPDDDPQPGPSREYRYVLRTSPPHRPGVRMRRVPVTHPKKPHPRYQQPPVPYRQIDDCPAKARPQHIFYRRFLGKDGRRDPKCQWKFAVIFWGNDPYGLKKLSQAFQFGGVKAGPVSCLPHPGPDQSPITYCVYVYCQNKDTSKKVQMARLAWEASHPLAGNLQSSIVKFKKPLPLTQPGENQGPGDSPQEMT
T cruzi inh = inhibitors of intracellular T. cruzi growth, primary screen, luminescence, NIH3T3 host cells | T. cruzi beta-gal in NIH3T3, 90 h | inhibition, % (no concentration beside the values) | 300,000 tested, 1.4% active | AID 1885, 2009;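 active means mean inhibition across valid replicates above about 55%, limit read from the data; inconclusive means mean below that limit but half or more replicates reach it; inactive means mean below it, under half of replicates reach it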;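 further: signal also drops with host cell toxicity which is not excluded here; 0% = plate median of DMSO wells and 100% = zero luminescence signal; higher percent means less beta-gal luminescence so fewer parasites; stock transfer was 50 nL into about 50 µL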
UCH37 inh = inhibitors of human UCH37 deubiquitinase, primary screen, biochemical, Ub-AMC cleavage, fluorescence; purified proteasome/UCH37; inhibition, % (test concentration not listed); 330,000 tested, 0.33% active; AID 588478, 2011;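 active means mean of two replicates above 20%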;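 further: 0% = compound-free wells with enzyme and 100% = wells lacking proteasome; stock transfer was 100 nL into about 20 µL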
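Reagent: Ub-AMC substrate; assay system: Proteasome-associated human UCH37 deubiquitinase; controls: no-proteasome and no-compound wells; read-out: % inhibition of Ub-AMC cleavage fluorescence; timing: 30 min preincubation with enzyme, 25 min cleavage at room temperature; signal: AMC fluorescence from Ub-AMC cleavage, excitation 355 nm, emission 460 nm; buffer or medium: Tris-HCl pH 7.4 plus ovalbumin, ATP-MgCl2, DTT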
RanGTP-Imp inh = inhibitors of RanGTP-importin-beta interaction, primary screen, biochemical, FRET, CFP-Ran, YFP-importin-beta, homogeneous | cell-free CFP-Ran/YFP-importin-beta FRET ratio | 300,000 tested, 1.1% active | inhibition, % (test concentration not listed);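 active means most replicates above 15%; inconclusive means exactly half above 15%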;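 further: 0% = DMSO wells and 100% = Ran loaded with GDP instead of GTP; wells of about 40 µL received 100 nL stock; the first replicate is given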
Numbers without * were called inactive; ? = inconclusive; . = not tested or not shown. Not a hit list; overall some 4.3% were active at least once.

SMILES	Bfl-1 A1 inh	B2AR ag	Calb FLC	Beta apoptosis	LANA-H2B inh	T cruzi inh	UCH37 inh	RanGTP-Imp inh
O=C(CCCSc1nc2ccccc2[nH]1)NCc1ccco1	-1.0	-4	-4	-8	-3.1	1	0.3	-0.7
Cc1cc(C)cc(NC(=O)C2CCCC2)c1	0.8	-14	6	-5	0.2	1	2.3	0.5
Cc1ccc(NC2CCCN(C(=O)c3cc4ncccn4n3)C2)cc1C (configuration not stated)	1.2	2	2	.	-6.3	3	-0.2	2.4
COC(=O)c1cn(NC(=O)C2CCCO2)c(=O)c2ccccc12 (configuration not stated)	0.0	-4	-7	3	1.3	-8	4.1	6.3
O=C(Nc1ccccc1Cl)N1CCn2c(nc3ccccc32)C1	-0.2	-24	-12	.	1.1	-2	2.9	-3.4
COc1ccc(C(=O)COC(=O)/C=C/c2ccc(S(=O)(=O)Nc3cccc(S(N)(=O)=O)c3)cc2)cc1	-0.4	7	7	-8	2.3	8	.	-2.6
CC1(C)Cc2c(C#N)c(N3CCN(C(=O)c4ccco4)CC3)nc(-c3ccco3)c2CS1	-0.3	.	-2	6	0.2	10	-163	10
O=C(Nc1ccc(N2CCOCC2)cc1N1CCOCC1)c1ccc(Cl)cc1	0.1	0	7	-1	4.7	0	-0.7	-2.2
CCCCCN1C(C)=CC(=C(C#N)C#N)C=C1C	0.4	-2	14	-1	-1.6	-8	14	-2.1
O/N=C(\c1ccccc1)c1nccc2ccccc12	-0.2	8	-4	-12	-0.5	5	.	-1.1
CCOC(=O)c1ccc(N=Cc2nc3ccccc3n2C)cc1	-0.3	10	12	-5	-2.9	-5	.	?
O=C(CSc1ccccc1F)NC1CCS(=O)(=O)C1 (configuration not stated)	-0.3	-3	21	-6	1.9	-5	1.9	0.4
COc1ccc(Cl)cc1-c1n[nH]c(=S)n1Cc1ccccc1	-0.4	11	11	.	-0.4	3	7.0	4.5
Cn1c(N)c(C(=O)COC(=O)c2ccc(Cl)c(S(=O)(=O)N3CCCCC3)c2)c(=O)n(C)c1=O	0.8	1	17	-7	2.3	-4	-12	3.0
Nc1nc(SCc2ccc(F)cc2)n[nH]1	-0.2	2	-5	-3	0.2	-9	1.4	3.6
Cc1ccc(-c2noc(CSc3nnnn3C3CCCCC3)n2)cc1	-0.3	-17	-9	-11	3.3	5	4.2	-2.9
CC1CN(CCCOc2ccccc2-c2ccccc2)CC(C)O1 (configuration not stated)	-0.4	3	-10	2	.	19	2.7	2.1
O=C(NCCCN1CCCC1=O)C1CCN(S(=O)(=O)N2CCOCC2)CC1	.	-1	-1	.	.	12	-3.1	2.5
CN1CCc2c(sc(NC(=O)c3ccc(S(=O)(=O)N4CCCC4)cc3)c2C(N)=O)C1	0.2	-2	-5	-2	-1.7	11	8.8	41*
CCOc1cc(Br)cc(/C=N/NC(=O)c2cccnc2)c1O	1.3	5	-1	33	1.4	35	.	-1.3
CCOC(=O)CCc1c(C)c(C#N)c2nc3ccccc3n2c1-n1cnc2ccccc21	-0.1	1	-5	-2	2.3	14	-105	-7.7
O=C(Nc1ccc(F)cc1)C1CCCN(C2=NS(=O)(=O)c3ccccc32)C1 (configuration not stated)	0.2	-5	.	0	-1.2	.	1.8	.
Cc1ccc2c(c1)N(CC(=O)NCc1cccs1)C(=O)CO2	0.4	4	-12	-6	0.9	-13	-1.8	-1.7
CNC(=S)NNC(=O)Cn1ccc(C)n1	2.8	-2	0	-2	-2.4	4	2.1	-1.2
COC(=O)c1c(C(=O)OC)c(-c2ccc(C)cc2)n2c1CS(=O)(=O)C2	1.2	4	-2	3	-2.2	-17	-1.0	0.9
Following part
SMILES	Bfl-1 A1 inh	B2AR ag	Calb FLC	Beta apoptosis	LANA-H2B inh	T cruzi inh	UCH37 inh	RanGTP-Imp inh
CCN(CC)CCNC(=O)Cc1c(C(=O)O)n(C)c2ccccc12	3.0	5	1	-4	1.4	-1	1.2	1.7
O=C(O)Cc1csc(-c2ccc(F)cc2)n1	-0.9	-7	-12	5	-2.1	-9	-1.3	-1.5
Cc1ccc(S(=O)(=O)N2CCN(C(=O)CSc3ncn[nH]3)CC2)c(C)c1	0.5	-3	5	-12	-4.9	-2	1.8	8.4
Cc1ccc2c(c1)N=C(c1ccc(Cl)cc1)CO2	-6.4	-2	-12	.	2.4	-19	4.8	1.2
COc1ccc(Cc2[nH]n3c(=O)cc(C(C)C)nc3c2-c2ccccc2)cc1	0.9	-7	1	30	-0.6	0	-1.6	-1.4
Nc1cccc(C(=O)Nc2ccccc2Cl)c1	-2.1	1	-8	-2	4.6	-27	-0.2	-0.2
Cc1ccc(S(=O)(=O)CCC(=O)Nc2nnc(-c3ccccc3S(C)(=O)=O)o2)cc1	-0.2	4	2	.	4.4	-6	-0.7	?
Cc1nc2sc(C(c3cccc(F)c3)N3CCC(C)CC3)c(O)n2n1 (configuration not stated)	1.2	11	0	-1	-0.3	-30	0.2	-1.6
CCn1c(C)nc2cc(C(=O)N/N=C(\C)c3ccc(OC)cc3O)ccc21	.	9	31	.	.	0	.	0.7
CC(C)(C)c1cc(N/C=C\c2nnnn2-c2ccc(Br)cc2)no1	1.3	-2	-3	-8	-1.6	8	0.0	-1.3
Cc1ccc2c(c1)-c1c(cnn1CC(=O)N(Cc1ccco1)C1CCCCC1)CO2	1.1	-6	3	-6	-3.6	17	1.6	-2.0
O=C(COc1ccc(F)cc1)Nc1ccc(-n2cnnn2)cc1	0.8	2	18	-6	-2.0	-3	6.2	2.3
Cc1ccc(Cl)c(OCC(=O)Nc2cc(S(=O)(=O)N3CCOCC3)ccc2N2CCCC2)c1	1.7	7	-12	5	-0.4	15	0.1	8.2
COC(=O)c1ccc(Cn2nnc3c(=O)[nH]c(C4CCN(S(=O)(=O)c5ccc(F)cc5)CC4)nc32)cc1	-0.5	14	-6	-7	1.4	35	3.9	2.1
COCCN(C(=O)CSc1nnc(-c2ccc(C(C)(C)C)cc2)n1N)c1c(N)n(CC(C)C)c(=O)[nH]c1=O	-0.2	-1	-3	-2	-7.7	-5	4.3	-0.9
c1ccc2c(c1)SCc1nnc(-c3ccncc3)n1-2	0.7	2	0	-8	-3.4	-17	1.6	3.0
CCC(=O)Nc1ccc(S(=O)(=O)Nc2c(NC)c3ccccc3oc2=O)cc1	0.4	3	29	-7	1.9	-20	3.6	-0.5
C[C@H]1CN([C@@H](C)CO)C(=O)Cc2cc(NC(=O)CCC(F)(F)F)ccc2O[C@H]1CN(C)CC1CC1	-0.9	1	.	-2	-4.2	.	3.0	.
CCOc1ccc(NC(=O)C2CCCN(S(=O)(=O)c3ccc(-n4cnnn4)cc3)C2)cc1 (configuration not stated)	0.4	1	6	-3	5.7	5	3.2	-2.8
O=C(COC(=O)c1cccc(OC(F)F)c1)NC(=O)NC1CCCCC1	0.0	0	-10	-6	1.3	1	3.5	-6.4
COc1cccc(C2[C@H](C)C3(CCN2C)OCCO3)c1 (some centres not stated)	-0.5	-2	29	-5	2.4	-13	0.3	3.4
O=C(NCc1ccc2c(c1)OCO2)c1cc([N+](=O)[O-])ccc1N1CCCCC1	0.9	2	4	11	-3.4	-2	7.5	1.3
O=C(COc1ccc(F)cc1Br)NCCCN1CCCC1=O	1.6	-5	.	0	3.6	.	-0.6	.
COc1ccccc1C(=O)NCCC(=O)Nc1ccc(OC(F)(F)F)cc1	-0.6	-2	4	0	-5.0	-4	6.4	-2.0
Cc1ccc(S(=O)(=O)NCCC(=O)Nc2ccc(Cl)c(Cl)c2)cc1C	0.3	0	4	-4	1.9	15	0.5	-2.0
Other entries:
SMILES	Bfl-1 A1 inh	B2AR ag	Calb FLC	Beta apoptosis	LANA-H2B inh	T cruzi inh	UCH37 inh	RanGTP-Imp inh
CC(=O)N1CCN(C(=O)c2ccc(NS(=O)(=O)c3ccc4[nH]c(=O)[nH]c4c3)cc2)CC1	-0.2	-1	4	-7	-2.3	-2	2.7	?
O=C(c1cccc(Br)c1)N1CCN(c2ccc(N3CCOCC3)nn2)CC1	0.0	-3	-3	.	-1.9	-6	-156	?
Fc1ccc(OCc2cc(-c3ccccc3)no2)cc1	-4.2	-1	-33	-1	-3.5	1	0.2	-0.3
Cc1noc(C)c1COc1cccc(C(=O)N2CCN(C/C=C/c3ccccc3)CC2)c1	0.0	-4	-3	2	-0.8	32	4.1	0.7
O=C(CSc1nnc2ccc(-c3cccnc3)nn12)Nc1ccc(F)cc1	0.7	-8	-1	-3	-2.7	3	2.7	-2.2
COc1cc(NC(=O)CC(C)C)ccc1NC(=O)c1ccco1	-1.4	-6	6	-3	-0.1	0	2.3	2.5
CC(=O)NCC(=O)N1CCCC(C(=O)c2ccc3c4c(cccc24)CC3)C1 (configuration not stated)	-0.1	-9	29	-7	-1.1	0	-59	.
Cc1cc(C)cc(NC(=O)C2CCC(CNC(=O)[C@@H]3Cc4ccccc4CN3)CC2)c1 (some centres not stated)	0.7	.	-2	3	2.8	7	5.7	?
Cc1c(NC(=O)C23CC4CC(CC(C)(C4)C2)C3)c(=O)n(-c2ccccc2)n1C	0.0	-9	5	-6	-2.7	3	2.9	6.9
COc1ccc(S(=O)(=O)N2CCN(C(=O)c3cc(C)oc3C)CC2)cc1OC	-0.2	0	.	-2	-4.7	.	3.7	.
CN(CC(=O)NCc1ccncc1)S(=O)(=O)c1cc(Cl)ccc1Cl	0.9	-13	-7	-2	-3.0	1	5.4	1.3
CCOC(=O)c1ccc(NS(=O)(=O)c2ccc3c(c2)oc(=O)n3C)cc1	0.1	-16	15	2	32*	-16	2.7	2.8
O=C(NC(=C(Cl)Cl)S(=O)(=O)c1ccc(Cl)cc1)c1ccccc1	1.6	5	-6	8	0.4	-9	2.2	0.1
CSC(C(=O)c1cc2ccccc2o1)c1ccccc1 (configuration not stated)	-3.9	7	-1	-11	3.7	-3	-1.2	3.0
O=C(O)c1ccc(C=NNC(=O)c2ccccc2NS(=O)(=O)c2cccs2)cc1	1.1	-3	.	0	-5.9	.	8.0	.
CCOC(=O)C1CCN(C(=O)Cn2cc(C(=O)C3CC3)c3ccccc32)CC1	-0.1	2	1	-1	11	1	5.3	3.6
C=CCn1c(NCc2ccccc2)nc2ccccc21	0.6	0	36	-7	1.5	-5	0.9	-2.4
CN(C)C(CNC(=O)c1ccc(NS(=O)(=O)c2cccc([N+](=O)[O-])c2)cc1)c1ccco1 (configuration not stated)	0.5	5	-8	.	2.1	7	-4.4	0.0
O=C(NCCN1C(=O)S/C(=C\c2ccccc2F)C1=O)C1CCN(S(=O)(=O)c2cccs2)CC1	1.0	-10	-10	-6	-9.1	-10	4.3	-3.0
Cc1noc(C)c1CN1C(=O)NC2(CCCCCCC2)C1=O	-0.3	-5	11	-4	1.6	-7	4.8	-3.9
CCNC(=O)CCSc1nc2cc(Cl)ccc2o1	-0.6	17	?	1	4.7	-2	-0.5	1.1
